# GALR2 ag: GALR2 (human) receptor agonism | GALR2-expressing cells, agonist activation read-out | activation, %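 (tested at 5 µM)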 | actives 0.48% (n = 140,000) | AID 803;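 active means above mean plus 3 SD of all compounds, about 5% in these data, not always enough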;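 further: 0% = vehicle buffer wells and 100% = reference agonist at full effect; tested in CHO reporter cells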
# PKD1 kinase inh: inhibitors of human PKD1 kinase; Q15139; PKD1 kinase fluorescence polarization assay; inhibition, %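 (about 10 µM by stock and volumes)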; actives 0.056% (n = 200,000);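 active means inhibition of 50% or more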;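 further: controls were vehicle for no effect and a reference inhibitor for full effect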
# Target sequence (Q15139 whole entry, looked up): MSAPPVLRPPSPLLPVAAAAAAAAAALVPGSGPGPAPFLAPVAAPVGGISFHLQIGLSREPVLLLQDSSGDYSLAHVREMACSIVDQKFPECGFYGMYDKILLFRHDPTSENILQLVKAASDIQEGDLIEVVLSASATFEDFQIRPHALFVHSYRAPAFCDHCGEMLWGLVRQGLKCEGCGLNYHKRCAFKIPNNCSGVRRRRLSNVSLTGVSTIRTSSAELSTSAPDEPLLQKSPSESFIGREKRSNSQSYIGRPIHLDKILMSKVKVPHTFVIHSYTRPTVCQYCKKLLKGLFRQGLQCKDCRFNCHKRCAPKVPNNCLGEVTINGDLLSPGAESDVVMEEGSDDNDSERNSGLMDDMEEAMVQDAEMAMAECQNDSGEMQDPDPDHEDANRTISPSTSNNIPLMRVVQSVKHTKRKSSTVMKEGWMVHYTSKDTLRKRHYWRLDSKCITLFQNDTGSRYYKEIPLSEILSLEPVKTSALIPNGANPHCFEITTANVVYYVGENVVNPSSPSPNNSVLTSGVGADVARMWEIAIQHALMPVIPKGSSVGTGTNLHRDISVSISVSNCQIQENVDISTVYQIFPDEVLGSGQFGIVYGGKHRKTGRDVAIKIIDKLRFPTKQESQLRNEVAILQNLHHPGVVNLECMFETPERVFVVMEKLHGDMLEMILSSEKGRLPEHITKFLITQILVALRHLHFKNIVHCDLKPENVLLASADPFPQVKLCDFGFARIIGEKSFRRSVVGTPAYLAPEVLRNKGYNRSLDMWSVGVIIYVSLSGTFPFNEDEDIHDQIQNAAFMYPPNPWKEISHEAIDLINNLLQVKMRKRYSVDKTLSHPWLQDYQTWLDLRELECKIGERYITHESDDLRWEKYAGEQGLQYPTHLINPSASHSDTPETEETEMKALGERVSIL
# Insulin prom inh: TRM-6 insulin promoter activity inhibition; TRM-6 cells (human fetal islet line), insulin promoter-eGFP reporter, imaging; reporter expression induced with tamoxifen; inhibition, % at 2 µM; actives 0.9% (n = 130,000); AID 1273;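 active means inhibition above the mean plus 3 SD, with well images judged a real hit on visual review, cut at about 60% in these data, passing the limit was not always enough; inconclusive means inhibition over the cutoff but images rejected on review; inactive means inhibition not above the cutoff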
# HSV replic up: increases HSV replication in cells. actives 0.005% (n = 220,000). maximum fold increase. HSV replication augmentation in cells, fold increase;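 active means peak rise of 1.5-fold or more in the series; inconclusive means self-fluorescent or not available for retest; tested in PC3 cells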;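 further: first round at 10 µM; read as green reporter fluorescence; hits show the peak of a series up to 25 µM; 1 = signal of infected wells without compound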
# RGS16-Gao: RGS16-Galphao interaction regulator (human); bead-based flow cytometry RGS16-Galphao binding, fluorescence; actives lie on both sides; binding response (% of control), % at 10 µM; actives 0.38% (n = 220,000);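 active means below 25% or above 175%, edge rows of some plates excepted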;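 further: Galphao activated by GDP with aluminum fluoride before binding; 100% = wells without compound and 0% = beads without RGS; some results beyond the cut were filed as inactive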
# Insulin prom inh cell count: second read-out of Insulin prom inh, no call of its own (marks repeat the call); normalized cell count, %; measured here: cell count, toxicity; reference of the scale not given here;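 cells exposed to compound for 48 h; stained nuclei by imaging scaled within each plate; lower means fewer cells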
# HSV replic up primary fold: also measured in HSV replic up; calls as there; fold increase; compound at 10 µM; measured here: primary screen fold increase 10 uM; tested in PC3 cells;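 GFP signal in the first replicate; 1 = infected wells without compound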
# * hit, by the source's call; i = inactive; ? = inconclusive; · = not tested or not shown. The list is partial, so the mix of outcomes need not match the whole.
SMILES,GALR2 ag,PKD1 kinase inh,Insulin prom inh,Insulin prom inh cell count,HSV replic up,HSV replic up primary fold,RGS16-Gao
Cc1ccsc1C(=O)C1CCCN(Cc2ccccc2O)C1 (configuration not stated),·,-2.7,·,·,i,0.99,108.6
Cn1nc(N)c2c1N=P(N1CCOCC1)(N1CCOCC1)N=C2c1ccccc1,-2.8,8.4,6.1,103.8,i,0.76,99.3
Cc1ccc2c(c1)=C/C(=C\c1c(O)[nH]c(=S)[nH]c1=O)C(=O)N=2,-0.5,1.2,·,·,i,1.09,97.3
COc1cc(C(=S)N2CCOCC2)cc(OC)c1OC(=O)Cc1ccccc1,·,16.8,·,·,i,1.01,97.2
O=C(COC(=O)Cc1ccccc1)Nc1ccc(SC(F)F)cc1,-1.7,3.9,·,·,i,0.95,101.6
Cc1cccc(CN2CCN(Cc3ccc(Cl)cc3)CC2)c1,-0.4,-8.5,-43.5,105.2,i,0.84,102.4
CN1C(=O)C(C2(C#N)CCCCC2)C(=O)N(C)C1=O,-1.3,-13.3,43.8,112.8,i,1.04,101.2
CCn1c(O)c(/C(C)=N/N2CCCCC2c2cccnc2)c(=O)[nH]c1=S (configuration not stated),-1.6,3.3,-40.0,72.7,i,0.93,105.8
O=C(NC(=O)N1CCC2(CC1)OCCO2)c1ccc(Cl)cc1,·,-4.5,·,·,i,0.85,105.8
CC1=CC(=O)NP(=O)(Oc2ccc3ccccc3c2)N1 (configuration not stated),0.1,-3.8,0.0,99.3,i,0.97,101.9
CN(C)CCN=Cc1c(O)n(Cc2ccc3c(c2)OCO3)c(=S)[nH]c1=O,·,·,·,·,i,1.06,102.4
O=C(Cc1ccccc1)OCCNC(=O)c1cccnc1,-2.5,6.7,-85.7,90.8,i,0.96,98.0
CC1CN=C(Nc2ccccc2)S1 (configuration not stated),-2.6,1.9,·,·,i,1.12,99.0
COc1cc(/C=C2/C(=O)NC(=O)N(c3ccccc3)C2=O)ccc1O,-0.2,1.7,-21.4,142.6,i,1.06,99.0
CCOC(=O)c1c(N)n(CCN2CCCCC2)c2nc3ccccc3nc12,0.6,-13.3,-41.7,65.3,i,0.89,100.0
O=C(CSc1ccccc1)N1CCC2(CC1)OCCO2,-3.5,-8.6,-19.4,169.5,i,0.81,103.3
CCCC1=C(C(=O)OCC)C2(C(=O)Nc3ccc(C)cc32)C(C#N)=C(N)O1 (configuration not stated),-1.2,-10.3,9.1,115.6,i,0.88,99.6
CCN(CC)C(=O)c1ccc(N2C(=O)C3CC=C(Cl)CC3C2=O)cc1 (configuration not stated),-2.6,-9.6,·,·,i,1.07,101.1
CCC(=Nc1ccccc1NC(C)=O)c1c(O)n(C)c(=O)n(C)c1=O,0.2,-4.5,14.3,78.5,i,0.89,104.2
COc1ccc(NC(=O)c2cn(CCC#N)nc2-c2cccc([N+](=O)[O-])c2)cc1,·,·,·,·,i,0.9,109.1
CC(=O)N1CN2CN(C1)CN(C(C)=O)C2,-0.3,-13.5,12.5,98.0,i,1.07,92.0
CCNCCNc1ccc([N+](=O)[O-])c2cccnc12,·,·,·,·,i,0.63,99.4
Cc1ccc(S(=O)(=O)N(C)C)cc1NC(=O)C(C)[N+]12CCN(CC1)CC2 (configuration not stated),·,-1.2,·,·,i,1.07,106.8
CN(C)C(=O)Oc1ccc(OCc2cccc[n+]2C)cc1,-3.5,-7.5,-26.9,86.0,i,0.85,101.9

# Part of the list above in another layout:
CCOC(=O)c1c(N)n(CCN2CCCCC2)c2nc3ccccc3nc12
  GALR2 ag: 0.6
  PKD1 kinase inh: -13.3
  Insulin prom inh: -41.7
  Insulin prom inh cell count: 65.3
  HSV replic up: i
  HSV replic up primary fold: 0.89
  RGS16-Gao: 100.0

CC(=O)N1CN2CN(C1)CN(C(C)=O)C2
  GALR2 ag: -0.3
  PKD1 kinase inh: -13.5
  Insulin prom inh: 12.5
  Insulin prom inh cell count: 98.0
  HSV replic up: i
  HSV replic up primary fold: 1.07
  RGS16-Gao: 92.0

# Further results follow:
SMILES,GALR2 ag,PKD1 kinase inh,Insulin prom inh,Insulin prom inh cell count,HSV replic up,HSV replic up primary fold,RGS16-Gao
CN(Cc1ccccc1)C(=C(Cl)Cl)/C(=C1/NCCN1Cc1ccc(Cl)nc1)[N+](=O)[O-],-0.9,-0.5,-25.8,144.9,i,0.95,103.0
O=P(N1CCCCC1)(N1CCCCC1)C(Cl)(Cl)Cl,-1.5,0.1,-135.7,94.8,i,0.57,99.2
Cc1cc(N2C(=O)C3CCCN3C2c2ccccc2)no1 (configuration not stated),-0.9,-10.5,·,·,i,1,99.7
CC1=C2C3OC(=O)C(C)C3CC[C@@]2(C)C=CC1=O (some centres not stated),·,·,·,·,i,0.91,101.2
CNC(C(=O)c1ccccc1)C(OC)c1ccccc1 (configuration not stated),-2.5,11.0,·,·,i,0.96,98.6
O=C(c1cc(S(=O)(=O)N2CCCCC2)ccc1F)N1CCC2(CC1)OCCO2,-1.3,-8.7,15.4,105.3,i,0.81,100.4
O=C(Cc1ccc(Cl)c(Cl)c1)NCC1(N2CCOCC2)CCCCC1,·,-6.3,·,·,i,0.86,98.8
CSc1ccc(C(=O)C2CCCN(CCCn3cccn3)C2)cc1 (configuration not stated),·,7.2,·,·,i,1,87.1
CCCCC(=O)N/N=C/c1c(O)n(CC)c(=S)[nH]c1=O,-0.7,-1.1,-6.7,96.8,i,1.12,20.1
CN1C(=O)C(=Cc2ccc(N3CCCCCC3)o2)C(=O)N(C)C1=S,-1.4,-15.4,·,·,?,·,118.7
CCOC(=O)c1c(/N=C/c2c(O)n(-c3ccccc3F)c(=S)[nH]c2=O)sc2c1CCCC2,-2.8,-15.2,9.9,70.8,i,1.2,96.2
CC(=O)c1ccc2c(c1)C1C(Cl)C(Sc3ccccc3[N+](=O)[O-])CC1C(C(=O)O)N2 (configuration not stated),-0.3,5.5,-22.2,95.2,i,1.07,102.8

# Among those listed so far, three have an aryl methoxy group.
SMILES,GALR2 ag,PKD1 kinase inh,Insulin prom inh,Insulin prom inh cell count,HSV replic up,HSV replic up primary fold,RGS16-Gao
COc1cc(C(=S)N2CCOCC2)cc(OC)c1OC(=O)Cc1ccccc1,·,16.8,·,·,i,1.01,97.2
COc1cc(/C=C2/C(=O)NC(=O)N(c3ccccc3)C2=O)ccc1O,-0.2,1.7,-21.4,142.6,i,1.06,99.0
COc1ccc(NC(=O)c2cn(CCC#N)nc2-c2cccc([N+](=O)[O-])c2)cc1,·,·,·,·,i,0.9,109.1

# Following part
SMILES,GALR2 ag,PKD1 kinase inh,Insulin prom inh,Insulin prom inh cell count,HSV replic up,HSV replic up primary fold,RGS16-Gao
Cc1ccc2c(c1)[C@@H]1CN(C)CC[C@@H]1N2C(=O)Nc1cccc(C(F)(F)F)c1,-0.6,4.3,-20.0,46.5,i,0.69,99.5
COc1cccc(CNCCc2ccccc2)c1OC,·,-3.9,-76.2,53.9,i,0.92,110.5
COC(=O)C1C2c3ccccc3OC1(C)N=c1s/c(=C/c3cnn(C)c3C)c(=O)n12 (configuration not stated),-1.5,-7.8,38.5,95.4,i,1,104.5
CC(C)(CN)CC(=O)O,·,·,·,·,i,1.09,92.8
O=C(COc1ccc(Cl)cc1)N1CCN(Cc2ccc([N+](=O)[O-])cc2)CC1,·,0.8,-9.1,46.3,i,1.21,118.3
CCCCn1c(O)c(C=NCCCn2ccnc2)c(=O)[nH]c1=O,-1.1,-7.0,·,·,i,0.87,99.3
O=C(O)c1ccc2c(c1)C1C(Cl)C(Sc3ccccc3[N+](=O)[O-])CC1C(c1cccc([N+](=O)[O-])c1)N2 (configuration not stated),·,-4.6,-5.6,147.8,i,0.92,102.3
CCCCn1c(O)c(C(CC)=NCc2cccnc2)c(=O)[nH]c1=O,-0.2,-1.5,-73.3,126.0,i,0.87,107.3
COc1c(C)cc(C(=O)C2CCCN(Cc3ccccn3)C2)cc1C (configuration not stated),·,-9.2,-319.1,53.5,i,1.06,120.1
FC(F)(F)c1ccc2c(c1)nnn2C1CCN(Cc2nnnn2Cc2ccccc2)CC1,-2.0,0.7,-184.4,23.2,i,0.79,101.9
Cc1cc(OC(=O)N(C)C)nc2c1c(C)nn2C,·,·,·,·,i,1.04,101.7
COP(=O)(OC)Oc1ccc(C(O)C(Cl)(Cl)Cl)cc1 (configuration not stated),·,·,·,·,i,1.11,102.5
CCCCn1c(O)c(C(CC)=NCCCN(C)C)c(=O)[nH]c1=O,-0.7,-7.9,·,·,i,0.76,111.5
CCCCC/C=C\C/C=C\C/C=C\C/C=C\CCCC(=O)Nc1ccc(O)cc1,·,·,·,·,i,0.67,95.9
CC(C(=O)c1c[nH]c2ccccc12)N1CCOCC1 (configuration not stated),·,·,·,·,i,0.95,98.7
Cc1occc1C(=O)N1CCC2(CC1)OCCO2,-0.5,-5.3,23.7,147.4,i,0.92,69.0
CCC(C)N1C(=O)/C(=C/c2ccc3c(c2)CCN3CCCCl)C(=O)NC1=S (configuration not stated),-1.6,9.5,17.6,89.5,i,1.13,99.9
CCOc1ccc2c(c1)c(C(C)=O)c(C)n2Cc1ccco1,·,4.3,-8.3,110.8,i,0.95,98.2
Cc1ccc2c(c1)CNc1ccccc1O2,-2.4,-10.2,0.0,90.7,i,0.96,93.9
Cc1ccccc1NC(=O)c1cc(-c2ccccc2)n(CCCN2CCOCC2)c1C,·,·,·,·,i,0.93,96.6
N/C(=N\N=C/c1ccc(-c2ccc(O)c(C(=O)O)c2)o1)N[N+](=O)[O-],-2.1,0.2,·,·,i,1.22,109.5
CC1CCN(S(=O)(=O)c2ccc(NN=C(C#N)C#N)cc2)CC1,-3.4,-0.5,46.7,91.5,i,0.96,101.3
Cc1ccc(C(=O)Nc2ccc(-n3ccnc3P(=O)(O)c3ccccc3)cc2)cc1,-1.1,-1.9,0.0,85.3,i,1.2,96.2
O=c1[nH]c(=O)n(-c2ccc(F)cc2)c(O)c1C=Nc1ccccc1N1CCCC1,-0.3,-0.5,-21.6,100.0,i,0.91,105.8
CN1c2ccccc2Oc2ccccc21,-0.1,-8.1,-3.5,125.8,i,0.94,99.1
CCOC(=O)c1c(-n2c(C)cc(/C=C3\C(=O)NC(=O)N(C)C3=O)c2C)sc2c1CCCC2,-2.7,1.5,·,·,i,0.88,96.7
O=c1[nH]c(=O)n(-c2ccc(Br)cc2)c(O)c1C=NCCN1CCCCC1,·,·,·,·,i,0.97,96.8
COc1cccc(-n2c(O)c(C=NCc3ccc4c(c3)OCO4)c(=O)[nH]c2=O)c1,-1.1,-18.2,-2.9,62.3,i,0.97,101.3
O=[N+]([O-])c1ccc(N2CCNCC2)cc1N1CCCCC1,·,-2.8,·,·,i,0.94,113.5
COC(=O)c1ccc(C(C(=O)NC2CCCCC2)N(CCN2CCOCC2)C(=O)Cc2cccs2)cc1 (configuration not stated),·,-9.6,-41.7,100.0,i,0.92,134.7
O=P(Nc1ccccc1)(Oc1ccccc1)Oc1ccccc1,·,·,·,·,i,0.87,99.5
CN(C)CCNC(=O)c1cccn(Cc2cccc(C(F)(F)F)c2)c1=O,·,-10.0,·,·,i,0.98,99.4
COc1ccc(-c2[nH]ncc2CNC(C)Cc2ccsc2)c(F)c1 (configuration not stated),·,-8.1,·,·,i,1.12,101.6
CC(N=Cc1c(O)n(C2CC2)c(=S)[nH]c1=O)c1ccccc1 (configuration not stated),·,·,·,·,i,0.99,103.2
COc1ccc2c3c([nH]c2c1)C(C)NCC3 (configuration not stated),·,-0.6,·,·,i,1.02,103.5
CCOc1ccccc1-n1c(O)c(C=Nc2ccc(N(CC)CC)cc2)c(=O)[nH]c1=O,-0.6,-6.4,·,·,i,1,72.8
CC(=O)Nc1ccc(C2CN(C)CC2C(=O)c2ccc(Cl)cc2)cc1 (configuration not stated),·,-2.2,·,·,i,0.72,103.4
CSC1=NP(=S)(SC)N(C)c2nc3n(c21)CCC3 (configuration not stated),0.2,-8.8,57.1,87.9,i,1.04,102.4
C=CCn1c(O)c(C(CC)=Nc2cccc(C(F)(F)F)c2)c(=O)[nH]c1=O,·,·,·,·,i,1.04,96.7
O=C1NC(=O)N(c2ccccc2)C(=O)/C1=C/c1coc2ccc(O)cc2c1=O,·,·,·,·,i,1.13,97.5
CCn1ccnc1CN1CCCC(C(=O)c2cc(F)ccc2OC)C1 (configuration not stated),·,-5.8,·,·,i,0.97,101.3
COc1ccc(C(=O)N/N=C/C23CC[C@@H](O)CC2(O)CC[C@@H]2[C@@H]3CCC3(C)C(C4=CC(=O)OC4)CCC23O)cc1 (some centres not stated),·,·,·,·,i,0.67,97.6
COc1cccc(Oc2c(C)oc3cc(OC(=O)N(C)C)ccc3c2=O)c1,-1.2,-0.9,44.0,92.1,i,1.03,100.6
CC/C(=N\NC(=O)c1ccccc1)c1c(O)n(Cc2ccccc2)c(=O)[nH]c1=O,·,·,·,·,i,1.02,103.2
